Marburg entry inh = inhibitors of Marburg virus binding or cell entry | AID 540276 | 300,000 tested, 1.8% active | Potency, µM (doses to about 37.8 µM), for the others: at the top dose activity change, negative = inhibition, usual class: inhibitors | Marburg virus pseudotyped entry inhibition, cell reporter; control for the full effect not named in the record; about a third of the inactives were read at about 46 µM; active = well fitted inhibition curve with a large enough effect; inconclusive = small, poorly fitted or top-dose-only effect, or effect the other way; inactive = flat fitted curve, though single readings scatter; tested in HEK293 cells; about a fifth of its hits are not listed in these tables; note: % is set by controls: 0 for no effect and ±100 for the full control effect; luciferase read-out
Cruzain inh noDet = blocks cruzain activity in detergent-free assay; Potency, µM, for inactives: max response, negative = inhibition, hits mostly inhibitors; 200,000 tested, 2.3% active; AID 1476; P25779; purified cruzain, Z-FR-AMC fluorescence, no detergent;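 note: plate controls were enzyme without inhibitor for no effect and buffer without enzyme for full effect; nearly all actives have a fitted effect of over 40% in size; top concentration of the series not given in the record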
Target sequence (P25779 123-467 limits assumed): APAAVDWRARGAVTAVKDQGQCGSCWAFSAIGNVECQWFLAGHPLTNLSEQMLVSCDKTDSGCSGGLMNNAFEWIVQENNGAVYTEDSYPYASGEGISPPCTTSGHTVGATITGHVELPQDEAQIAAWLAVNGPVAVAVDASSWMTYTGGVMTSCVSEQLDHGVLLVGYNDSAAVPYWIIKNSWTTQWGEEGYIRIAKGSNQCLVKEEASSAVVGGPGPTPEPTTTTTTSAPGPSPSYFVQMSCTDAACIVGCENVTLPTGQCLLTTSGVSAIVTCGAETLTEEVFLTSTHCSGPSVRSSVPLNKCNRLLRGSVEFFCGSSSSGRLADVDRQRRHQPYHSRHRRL
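Purified cruzain at 1.5 nM, pre-incubated 15 min with compound at room temperature in 100 mM sodium acetate pH 5.5, 5 mM DTT, 0.00005% Triton X-100. Reaction started with 2 uM Z-FR-AMC; AMC fluorescence increase over 60 s gives rate.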
2A StopGo = FMDV 2A StopGo reporter, luciferase signal. human cells with a luciferase reporter of 2A StopGo recoding; control for the full effect not named in the record. Potency, µM (titrated, usually from 57.9 µM), for the others: at the top dose signal change, negative = less light. 410,000 tested, 1.2% active. AID 1159524; active = well fitted falling curve with a large enough effect; inconclusive = small, poorly fitted or top-dose-only effect; inactive = no such curve, though single readings can be large or run the other way; tested in HEK293T cells; note: % is set by controls: 0 for no effect and ±100 for the full control effect; nearly all actives have a fitted effect of over 45% in size; luciferase light after 4 h
NS1 inh = blocks influenza NS1 protein function; 270,000 tested, 0.4% active; AID 2326; S. cerevisiae slowed by influenza A NS1, growth recovery by OD600; Potency, µM (highest dose often 46.1 µM), inactives show at the highest dose activity, positive = more growth; active means well fitted rising curve with a large enough effect; inconclusive means small, poorly fitted or top-dose-only effect; inactive means no such curve, though single readings can be large or run the other way; note: nearly all actives have a fitted effect of over 50% in size
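Read-out: OD600 growth recovery of NS1-expressing budding yeast. Cells grown overnight at 30C in -URA glucose medium, washed, resuspended and diluted 1:100 in 2% galactose assay medium, pH 6.0. Same strain lacking NS1 served as positive control.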
SARS PLpro yeast = SARS-CoV PLP inhibition in yeast; S. cerevisiae expressing SARS-CoV PLpro, growth rescue; control for the full effect not named in the record; Potency, µM (highest dose often 32.9 µM), inactives show at the highest dose activity, positive = growth rescue; 330,000 tested, 0.19% active; AID 485353; active means well fitted rising curve with a large enough effect; inconclusive means small, poorly fitted or top-dose-only effect; inactive means no such curve, though single readings can be large or run the other way; note: 0% is about no effect; nearly all actives have a fitted effect of over 55% in size; growth read by luminescence after 48 h
RE007 growth inh = less growth of the S. pombe RE007 Vpr strain; S. pombe RE007 Vpr strain, BacTiter-Glo ATP luminescence, 24 h; control for the full effect not named in the record; Potency, µM (highest dose often 92.2 µM), for inactives: at the highest dose activity change, negative = less growth; 360,000 tested, 0.21% active; AID 651644; active = well fitted falling curve with a large enough effect; inconclusive = small, poorly fitted or top-dose-only effect; inactive = no such curve, though single readings can be large or run the other way;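 note: % is set by controls: 0 for no effect and ±100 for the full control effect; nearly all actives have a fitted effect of over 50% in size; the assay follows cell death caused by Vpr and the record does not say whether a fall means rescue or toxicity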
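Fission yeast strain RE007, carrying one chromosomally integrated HIV-1 vpr copy, was seeded at OD 0.01 in PMG+AL medium with 23 nL pinned compound. After 24 h at 30 °C and 99% humidity, viability was read by BacTiter-Glo luminescence.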
LASV entry inh = Lassa virus entry inhibition | Lassa virus pseudotype entry inhibition, cell reporter; control for the full effect not named in the record | Potency, µM (highest dose often 37.9 µM), for the others: at the top dose activity change, negative = inhibition, most hits filed as inhibitors | 300,000 tested, 1.2% active | AID 540256; active means well fitted inhibition curve with a large enough effect; inconclusive means small, poorly fitted or top-dose-only effect, or effect the other way; inactive means flat fitted curve, though single readings scatter; tested in HEK293 cells; note: % is set by controls: 0 for no effect and ±100 for the full control effect; nearly all actives have a fitted effect of over 50% in size; luciferase read-out
Cruzain inh Det = cruzain (T. cruzi) inhibition with detergent. 200,000 tested, 0.43% active. AID 1478. purified cruzain, Z-FR-AMC fluorescence, 0.01% Triton. P25779. Potency, µM, for inactives: max response, negative = inhibition, most hits filed as inhibitors;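 note: plate controls were neutral wells for no effect and buffer without enzyme for full effect; nearly all actives have a fitted effect of over 40% in size; top concentration of the series not given in the record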
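Compounds were screened in titration against cruzain (1.5 nM) with 0.01% Triton X-100 to counter colloidal aggregation. Activity was the AMC fluorescence increase over 60 s after adding 2 uM Z-FR-AMC at pH 5.5.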
* = called active by the depositor; ? = inconclusive; / = no result given; & = joins results of further samples; [ ] = dose if it differs, or a comment. Unless noted, calls come from the whole dose curve; as a rule, active = well fitted curve in the direction sought with a large enough effect; inconclusive = small, poorly fitted or top-dose-only effect, or another doubt; inactive = no such curve, though single readings can be large; an effect the other way counts as inactive or inconclusive. Potency is the fitted concentration of half-maximal effect. Outcome played no part in choosing rows; any-hit rate near 4.8%.

Order of values: Marburg entry inh | Cruzain inh noDet | 2A StopGo | NS1 inh | SARS PLpro yeast | RE007 growth inh | LASV entry inh | Cruzain inh Det
1) COC(=O)c1ccccc1OC(=O)c1ccc(Br)o1
    0% | 3% | 1% | -7% | -2% | -28% | 8% | 0.0%
2) O=C(Nc1ccc2c(c1)C(=O)N(c1ccccc1)C2=O)c1cccs1
    / | / | -7% | 1% | 0% | 3% | / | /
3) COc1ccc(/C=C/C(=O)OCC(=O)N2CCCCCC2)cc1OC
    -3%[46.1 µM] | / | 20% | / | 0% | -12% | -6%[46.1 µM] | /
4) CC(NC(=O)CSc1nc(=O)cc(N)n1-c1ccccc1)c1ccccc1 (stereo not given)
    8% | -2% | -2% | 14% | 23% | 1% | 2% | -3.0%
5) COC(=O)c1cc(S(=O)(=O)NCC2CCN(Cc3ccc(Cl)cc3)CC2)c[nH]1
    / | / | -17% | -11% | -4% | -1% | / | /
6) N/C(=N\NC(=O)c1sccc1OCc1ccc(Cl)cc1Cl)c1ccccn1
    8.9µM* | / | -17% | 0% | -1% | 10% | ? | /
7) C/C(Cc1ccccc1)=N\NC(=O)CCCCCC(=O)N/N=C(\C)Cc1ccccc1
    -2%[46.1 µM] | -7% | 0% | 17% | 5% | -11% | 25% | -1.0%
8) CN(C)S(=O)(=O)c1cccc(NS(=O)(=O)c2ccc(Cl)s2)c1
    -16% | -7% | 27% | 7% | 3% | 6% | 2% | -3.2%
9) O=C(COC(=O)c1ccccn1)NC12CC3CC(CC(C3)C1)C2
    21%&21% | 20% | 22% | -22% | -13% | 6% | 17% | 8.7%
10) COc1ccc(N(CC(=O)NC2CCCC2)C(=O)Cn2nnc(-c3ccc(F)cc3)n2)cc1
    ? | / | -8% | -9% | 2% | -5% | 1%[46.1 µM] | /
11) O=C1CCCc2nc3c(cc21)C(O)Oc1c-3ccc2ccccc12 (stereo not given)
    -10% | / | 37%[activator] | / | -3% | -9% | -9% | /
12) CC(C)(C)c1ccc(C(=O)Nc2onc3c2CCCC3)cc1
    ? | -1% | -73% | / | / | / | ? | -9.0%
13) COCc1cc(NCc2ccc(Cl)cc2)nc(C)n1
    / | / | -2% | -4% | -2% | 1% | / | /
14) CN(C)C(=O)[C@@H]1C[C@H]1[C@@H](NC(=O)OCc1ccccc1)c1ccccc1
    -2% | 7%&0% | -2% | -7% | 4% | 5% | -17% | 2.7%&5.1%
15) COc1ccccc1CCNC(=O)c1ccc(OC)c(OC2CCN(C(C)C)CC2)c1
    29% | / | -2% | 3% | 0% | -4% | 17% | /
16) CN(C)S(=O)(=O)Nc1ccccc1C(N)=O
    15%[46.1 µM] | -7% | 12% | -15% | 2% | 30% | 4% | 3.5%
17) CCn1ccnc1CN(C)C(=O)c1cc(COc2ccc(-n3cncn3)cc2)on1
    13%[46.1 µM] | / | -15% | -3% | 0% | -7% | 29%[46.1 µM] | /
18) Cc1nnc(SCC(=O)NC(=O)NC(C)(C)C)s1
    ? | / | 14% | -2% | 2% | 5% | 0% | /
19) Cc1ccsc1C(=O)OCC(=O)Nc1ccc(Cl)cc1C(F)(F)F
    2% | -3% | 0% | -7% | -3% | 7% | 6% | 2.9%
20) Cn1c(SCC(=O)Nc2ccc3nc(SCC(=O)N4CCCC4)sc3c2)nnc1-c1ccccc1
    0% | ? | ? | 17% | 3% | 14% | 0% | -10%

Carrying on.
Order of values: Marburg entry inh | Cruzain inh noDet | 2A StopGo | NS1 inh | SARS PLpro yeast | RE007 growth inh | LASV entry inh | Cruzain inh Det
21) Cc1ccc(Nc2nc(N)nc(CSc3nnnn3-c3ccccc3)n2)cc1
    ? | -1% | -17% | 4% | 4% | 0% | 3% | 1.0%
22) Cc1ccc(C(=O)OCC(=O)NCc2cccs2)c(C)c1
    10%[46.1 µM] | / | 50%[activator] | 1% | -4% | -6% | ? | /
23) N#CC1=C(S)N=C(N)C(c2nc(-c3ccccc3)cs2)C12CCCCC2 (stereo not given)
    ? | 0% | 15% | 11µM* | 11% | -18% | -2% | 0.5%
24) Cc1ccc(C)c(S(=O)(=O)c2nnn3c2nc(N2CCN(C)CC2)c2sccc23)c1
    / | ? | 63%[activator] | / | / | / | ? | -0.2%
25) Cn1c(=O)c2c(nc(Sc3n[nH]c(N)n3)n2Cc2ccccc2Cl)n(C)c1=O
    3% | -17% | -21% | 14% | 0% | -8% | 1% | 0.2%
26) CC(C)(C)NC(=O)CC(CC(=O)O)c1ccccc1 (stereo not given)
    1% | 2% | -18% | 7% | 9% | -11% | / | 6.5%
27) CCOC(=O)c1c(C)oc2nc(C)nc(NCC3CCN(Cc4cccc(C)c4)CC3)c12
    / | -18% | -9% | / | / | / | ? | -1.2%
28) CN1CCN(C(=S)Nc2ccc(Cl)cc2)CC1
    -10% | / | -4% | 4% | 0% | 3% | -15% | /
29) O=C(NC(Cc1ccccc1)C(=O)N1CCN(S(=O)(=O)c2ccccc2F)CC1)c1ccccc1 (stereo not given)
    -14%[46.1 µM] | / | -11% | / | 8% | -3% | -1% | /
30) O=C(CCCN1C(=O)c2ccccc2C1=O)NCC1CCCO1 (stereo not given)
    ? | -2% | 20% | 9% | 1% | 1% | 0% | 2.6%
31) COc1ccc(C)cc1NC(=O)c1oc2ccc(S(=O)(=O)N(C)C3CCCCC3)cc2c1C
    / | 0% | -4% | / | / | / | -2%[46.1 µM] | 0.7%
32) C=CCSC1=C(C#N)C(c2ccccc2Cl)CC(=O)N1 (stereo not given)
    7% | -11% | 6% | 1% | 0% | -6% | ? | -1.8%
33) CCOC(=O)C1(CC2CCCCO2)CCN(C(=O)Nc2cccc(SC)c2)CC1 (stereo not given)
    1%[46.1 µM] | / | -8% | -10% | -1% | 6% | -3% | /
34) COC(=O)N/N=C/c1cc(Cl)c(OCc2ccccc2F)c(OC)c1
    ? | / | 13% | -17% | -4% | -12% | ? | /
35) CCOc1ccccc1NC(=O)Cn1nc2c3cc(F)ccc3n(Cc3cccc(C)c3)cc-2c1=O
    / | -1% | -16% | / | / | / | 8%[46.1 µM] | -5.9%
36) O=c1c2ccccc2nnn1CSc1ccccc1
    -13% | -3% | 58%[activator] | -2% | -15% | -9% | -30% | -2.4%
37) Cc1ccc(Cl)cc1NC(=O)CCC(=O)Nc1cc(Cl)ccc1C
    10% | ? | 9% | -2% | 2% | 7% | -5% | -0.6%
38) CCCCCCC(=O)Nc1nc(C)c(-c2csc(Nc3ccc(Cl)cc3)n2)s1
    / | ? | -6% | 18% | -7% | 2% | / | 4.5%
39) Cc1ccc(N2CCN(C(=O)c3cc(-c4ccc(F)cc4)[nH]c3C)CC2C)cc1 (stereo not given)
    ? | / | -24% | -34% | -11% | 3% | ? | /
40) O=C1CSCC(=O)N1c1ncc(C(F)(F)F)cc1Cl
    12% | / | -6% | -4% | -3% | 3% | 8% | /

Single values from the results shown:
compound 24 @ 2A StopGo = 63%[activator]
compound 5 @ RE007 growth inh = -1%
compound 22 @ Marburg entry inh = 10%[46.1 µM]
compound 39 @ SARS PLpro yeast = -11%
compound 13 @ NS1 inh = -4%
compound 7 @ Cruzain inh Det = -1.0%

The list continues:
Order of values: Marburg entry inh | Cruzain inh noDet | 2A StopGo | NS1 inh | SARS PLpro yeast | RE007 growth inh | LASV entry inh | Cruzain inh Det
41) O=C(Nc1ccc(S(=O)(=O)Nc2nccs2)cc1)c1cc(=O)[nH]c2ccccc12
    / | / | 4% | 3% | 6% | 4% | / | /
42) Cc1ccc(C(=O)N2CCN(c3ncccn3)CC2)cc1S(=O)(=O)N1CCCCC1
    -19% | -2% | -11% | 5% | ? | -11% | 1% | -2.3%
43) NNc1nc(-c2ccccc2)cs1
    ? | / | 20% | 11% | 10% | 71% | 10%[46.1 µM] | /
44) CCOC(=O)Cn1c(=O)oc2cc(S(=O)(=O)Nc3c(C)cc(C)cc3C)ccc21
    / | -5% | -7% | -53% | -1% | -13% | / | -1.4%
45) O=C(Cc1ccccc1)Nc1ccccc1C(=O)Nc1ccc(C(=O)O)cc1
    13%[46.1 µM] | / | 6% | / | -2% | -10% | -3% | /
46) N/C(=N\OC(=O)Cc1ccccc1)c1cccc(Br)c1
    5% | / | 18% | -6% | -1% | 12% | 28% | /
47) COc1ccc(N(Cc2cc3ccc(C)cc3[nH]c2=O)C(=O)c2ccco2)cc1
    3% | -6% | -26% | 9% | 1% | -5% | -11% | -0.4%
48) CCCc1nnc(NC(=O)c2cc3ccccc3o2)s1
    ? | / | 0% | -20% | 2% | -22% | 21% | /
49) Cc1ncc([N+](=O)[O-])n1CC(C)O (stereo not given)
    / | -2%&4% | -14%&0% | 3% | -5%&7% | -20% | / | 0.5%&0.1%

From entry 41 as far as 45, as listed above:
Order of values: Marburg entry inh | Cruzain inh noDet | 2A StopGo | NS1 inh | SARS PLpro yeast | RE007 growth inh | LASV entry inh | Cruzain inh Det
41) O=C(Nc1ccc(S(=O)(=O)Nc2nccs2)cc1)c1cc(=O)[nH]c2ccccc12
    / | / | 4% | 3% | 6% | 4% | / | /
42) Cc1ccc(C(=O)N2CCN(c3ncccn3)CC2)cc1S(=O)(=O)N1CCCCC1
    -19% | -2% | -11% | 5% | ? | -11% | 1% | -2.3%
43) NNc1nc(-c2ccccc2)cs1
    ? | / | 20% | 11% | 10% | 71% | 10%[46.1 µM] | /
44) CCOC(=O)Cn1c(=O)oc2cc(S(=O)(=O)Nc3c(C)cc(C)cc3C)ccc21
    / | -5% | -7% | -53% | -1% | -13% | / | -1.4%
45) O=C(Cc1ccccc1)Nc1ccccc1C(=O)Nc1ccc(C(=O)O)cc1
    13%[46.1 µM] | / | 6% | / | -2% | -10% | -3% | /

Assay outcomes from PubChem BioAssay.
